High-throughput results: PubChem BioAssay, National Center for Advancing Translational Sciences (NCATS)
Sfp PPTase inh: Sfp phosphopantetheinyl transferase inhibition. hit rate 3.5% among 310,000. Biochemical Sfp PPTase activity, qHTS. Q9F4F7. Potency, µM, for the others: max response, negative = inhibition, most hits filed as inhibitors. AID 1490; active means well fitted inhibition curve with a large enough effect; inconclusive means small, poorly fitted or top-dose-only effect, or another doubt; inactive means no such curve, though single readings can be large or run the other way;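 further: the enzyme is Sfp with the accession as filed and its product quenches rhodamine fluorescence; potency means the concentration at half of the fitted maximal effect; 0% = enzyme reaction without inhibitor and -100% = no enzyme wells; top concentration of the series not given in the record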
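With Hepes-Na pH 7.6 buffer containing 10 mM MgCl2, Sfp (15 nM) modified BHQ-2-YbbR (12.5 uM) using rhodamine-CoA (5 uM). Two reads 30 minutes apart at 525/598 nm yielded each well's rate.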
gsp ag: gsp mutant agonism; gsp mutant cells, cAMP HTRF, 30 min; control for the full effect not named in the record; hit rate 0.13% among 340,000; AID 624287; Potency, µM (series often up to 76.9 µM), inactives show top-dose activation (cAMP increase), hits mostly activators; active = well fitted activation curve with a large enough effect; inconclusive = small, poorly fitted or top-dose-only effect, or another doubt; inactive = no such curve, though single readings can be large or run the other way; cell line not stated here;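 further: phosphodiesterase inhibitor Ro 20-1724 added with compounds to block cAMP breakdown; potency means the concentration at half of the fitted maximal effect; nearly all actives have a fitted effect of over 60% in size; about a fifth of the inactives were tested at one dose only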
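Cells in DMEM/10% FBS with G418 were pretreated with compounds in DMSO plus […] (300 uM stock) for 30 min at 37C. cAMP was measured by HTRF (cAMP-d2 plus anti-cAMP antibody-K) after 30 min at room temperature.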
gsp antagonist: antagonists of gsp mutant (McCune-Albright syndrome) | hit rate 0.4% among 340,000 | AID 624288 | Potency, µM (highest dose often 76.9 µM), inactives show top-dose activity change, negative = inhibition, actives largely listed as inhibitors | gsp-mutant cells, cAMP HTRF, 30 min; control for the full effect not named in the record; active = falling curve of any shape with a large fitted effect; inconclusive = falling curve, mostly with a smaller effect; inactive = flat or rising curve; cell line not stated here;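 further: intracellular cAMP measured with PDE inhibitor Ro 20-1724 present during compound exposure; potency means the concentration at half of the fitted maximal effect; on the % scale 0 is the no-effect control and ±100 the full control effect; nearly all actives have a fitted effect of over 65% in size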
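HTRF cAMP measurement after 30 min RT detection following 30 min, 37C compound treatment alongside […] (added as 300 uM solution) in G418-selected cells seeded at 2000/well and grown 16–24 h.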
CtBP-E1A blk: blocks the CtBP interaction with E1A | hit rate 0.49% among 340,000 | AlphaScreen GST-E1A/His-CtBP binding, 1536-well; stronger effect = lower value; control for the full effect not named in the record | activity change, % (test concentration not listed) | AID 651724; in the data active means activity change below about -65%; inconclusive means about -30% to -65%; inactive means above about -30%; further: on the % scale 0 is the no-effect control and ±100 the full control effect; compound concentration not given in the record
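AlphaScreen with 125 nM GST-E1A and 125 nM His-CtBP (5X stocks) in Tris pH 8.0, 300 mM NaCl, BSA, Tween 20, TCEP. Compounds preincubated 2 h at 37 deg C, then glutathione donor/nickel acceptor beads added for 1 h at 37 deg C in dark.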
TRPV1 PAM: human TRPV1 potentiation. Q8NER1. TRPV1-expressing cells, Fluo-8 calcium influx, capsaicin EC20 potentiation; host cell line not named in the record; control for the full effect not named in the record. hit rate 0.02% among 320,000. AID 540277. potentiation, % at 8.33 µM; active means potentiation above 80%; inconclusive means 30% to 80%; inactive means below 30%; further: 0% is about no effect
Target sequence (Q8NER1 whole entry, looked up): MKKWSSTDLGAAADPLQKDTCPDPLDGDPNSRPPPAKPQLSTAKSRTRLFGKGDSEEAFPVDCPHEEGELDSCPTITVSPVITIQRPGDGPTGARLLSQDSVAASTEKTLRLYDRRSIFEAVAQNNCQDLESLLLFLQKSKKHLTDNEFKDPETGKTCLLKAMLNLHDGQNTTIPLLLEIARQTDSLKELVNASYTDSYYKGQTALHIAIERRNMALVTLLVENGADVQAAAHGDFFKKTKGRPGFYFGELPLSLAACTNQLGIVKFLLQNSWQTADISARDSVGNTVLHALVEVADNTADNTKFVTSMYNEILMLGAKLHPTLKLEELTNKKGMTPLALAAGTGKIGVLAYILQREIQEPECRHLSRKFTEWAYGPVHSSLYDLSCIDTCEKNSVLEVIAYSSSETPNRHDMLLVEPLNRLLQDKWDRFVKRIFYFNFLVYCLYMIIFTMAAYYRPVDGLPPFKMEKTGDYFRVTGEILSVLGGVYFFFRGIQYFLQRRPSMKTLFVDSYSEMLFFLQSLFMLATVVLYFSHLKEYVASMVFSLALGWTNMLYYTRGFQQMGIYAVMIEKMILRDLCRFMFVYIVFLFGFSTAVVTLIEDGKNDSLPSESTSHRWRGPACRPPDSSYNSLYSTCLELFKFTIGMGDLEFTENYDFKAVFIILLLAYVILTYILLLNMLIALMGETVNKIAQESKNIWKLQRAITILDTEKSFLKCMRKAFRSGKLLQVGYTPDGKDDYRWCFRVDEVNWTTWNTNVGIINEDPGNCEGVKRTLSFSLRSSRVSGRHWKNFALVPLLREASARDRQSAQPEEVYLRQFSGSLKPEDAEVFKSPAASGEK
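TRPV1-expressing cells were cultured overnight at 35.5C and loaded with Fluo-8 calcium dye for 40 to 90 min at room temperature. After a 10 s baseline, compound was added and calcium influx was read kinetically for 3 min (ex 480/em 520 nm).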
Menin MLL FP FL: inhibitors of human menin-MLL interaction, wild-type MLL peptide | FP activity change, % at 61.4 µM | AID 1766 | Fluorescence polarization, fluorescein-MLL peptide displacement from menin | 290,000 tested, under 10 active; inconclusive = falling polarisation curve, or a change in total fluorescence; inactive = total fluorescence flat and polarisation flat or rising; no compound was filed as active; the % refers to the polarisation; negative = inhibition;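 further: % of control where 0% means no effect; inhibitors lower the polarisation; unlabelled MLL peptide was the positive control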
ClpP mod: qHTS Assay for Activators of ClpP; AID 651965, 2013; Potency, µM (doses to about 57.5 µM), inactives show at the top dose activity change, negative = active; purified B. subtilis ClpP, FRET peptide cleavage, 20 min; hit rate 1.9% among 340,000; ATP-dependent Clp protease proteolytic subunit (Bacillus subtilis (strain 168)), P80244; active = well fitted falling curve with a large enough effect; inconclusive = small, poorly fitted or top-dose-only effect; inactive = no such curve, though single readings can be large or run the other way; further: potency means the concentration at half of the fitted maximal effect; the source files actives as falling curves though it sought activators and does not explain the sign; nearly all actives have a fitted effect of over 65% in size; many hits overshoot -100%
Target sequence (P80244 whole entry, looked up): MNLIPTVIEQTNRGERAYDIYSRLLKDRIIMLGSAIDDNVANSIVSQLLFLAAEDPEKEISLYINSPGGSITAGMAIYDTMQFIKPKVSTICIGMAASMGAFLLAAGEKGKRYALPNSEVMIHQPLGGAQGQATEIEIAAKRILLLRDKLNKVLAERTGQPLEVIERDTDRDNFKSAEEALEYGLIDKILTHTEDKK
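Buffer: 100 mM Tris/HCl pH8, 100 mM KCl, 0.05% low protease BSA, 2.5% glycerol, 0.01% Tween-20. ClpP 10 microg/mL final; 20 min RT; delta FRET normalized to ADEP and DMSO controls.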
* marks the source's active call; other numbers are inactive results; u = inconclusive; x = no result given; & = joins results of further samples; [ ] = remark or other dose.

SMILES	Sfp PPTase inh	gsp ag	gsp antagonist	CtBP-E1A blk	TRPV1 PAM	Menin MLL FP FL	ClpP mod
CCOC(=O)C1CCCN(C2=NC(=O)/C(=C/c3ccc(O)c(OC)c3)S2)C1 (centres undefined)	2%	27%	-10%	5	18	u	-0.1%
Cc1ccc(/C=C/C(=O)OCC(=O)NC(=O)NCc2ccccc2)cc1	x	-22%	6%	-1	2	x	-1.8%
O=C(c1cc(COc2c(F)cccc2F)on1)N1CCSCC1	8%	7%[15.4 µM]	8%	3	2	0.4	x
CCc1nc(N2CCC3(CC2)OCCO3)c2nnn(Cc3ccccc3)c2n1	-6%	-6%[15.4 µM]	-8%	16	-2	-5.5	x
CCOC(=O)C(CC)Sc1nnc2cc(C)c3ccccc3n12 (centres undefined)	x	3%	7%	-3	x	x	-1.1%
O=C1NC2(CCCC2)C(=O)N1CC(=O)N(Cc1ccccc1)c1ccccc1	x	8%[15.4 µM]	-1%	-7	-24	x	x
Cc1ccc(SCc2c(C(=O)N/N=C/c3ccc(C)o3)nnn2-c2nonc2N)cc1	x	-100%[inhibitor]	x	-14	x	x	-11%
Cc1ccc(Cc2nnc(SCC(=O)Nc3ccccc3)[nH]c2=O)cc1	x	-14%	-13%	3	-15	x	2.2%
Cc1ccc(/C=N/N2CCCCC2)o1	-42%	-21%[15.4 µM]	x	-24	-3	-1.3	x
COc1ccc(Cc2nnc(SCC(=O)N3CCCC(C)C3)o2)cc1 (centres undefined)	11%	-20%	-32%	5	10	-2.1	0.3%
CC(=O)Nc1ccc(S(=O)(=O)Oc2ccc(/C=N/N=C3/NC(=O)C(CC(=O)O)S3)cc2)cc1 (centres undefined)	-5%	-3%[15.4 µM]	3%	u	0	-4.4	x
COC(=O)C(Cc1c[nH]c2ccccc12)N1CCS(=O)(=O)CC1 (centres undefined)	13%	5%[15.4 µM]	11%	3	4	1.9	-1.7%
CC(=O)Nc1ccc(C)c(NS(=O)(=O)c2cccc(C(F)(F)F)c2)c1	6%	4%[15.4 µM]	-7%	1	12	-4.6	-0.4%
CCCCn1c(O)c(N=NC(=O)c2ccco2)c2ccccc21	-5%	-2%	23%	-20	-7	5.6	0.4%
CCOc1ccc(OCCSc2nnnn2-c2ccccc2)cc1	10%	5%	u	29	4	0.3	-0.9%
COc1ccc(N(C(C)=O)C2C=CS(=O)(=O)C2)c(OC)c1 (centres undefined)	-7%	0%	3%	8	-2	1.7	-0.1%
Cc1ccc(-n2ccc(-c3nn(-c4ccccc4)ccc3=O)n2)cc1	15%	-2%	12%	0	-1	-1.8	x
CCc1nn2c(=O)cc(CSCC(=O)Nc3ccccc3F)nc2s1	3%	-203%[inhibitor]	0%	1	-13	x	1.0%
Cc1ccc(C)c(C(=O)COC(=O)C2CCN(c3ccc(C(F)(F)F)cn3)CC2)c1	x	4%	-1%	27	10	x	-6.2%
O=C(CCN1CCN(Cc2ccccc2)CC1)NNC(=O)Nc1cccc([N+](=O)[O-])c1	-4%	9%[15.4 µM]	10%	-2	4	x	-1.0%
COc1ccc(S(=O)(=O)N(Cc2ccccc2)Cc2nc3ccccc3c(=O)[nH]2)cc1	4%	-56%[inhibitor]	-13%	-2	-10	0.6	-2.7%
CCn1c(=O)cc(OCC(=O)N2CCc3ccccc32)c2ccccc21	11%	18%	1%	-2	-3	3.2	-3.1%
CC(=O)c1ccc(NC(=O)C2CCC(C)(C(=O)O)C2(C)C)cc1 (centres undefined)	0%	-22%	-5%	1	-4	0.2	0.1%
C=CCN1C(=O)/C(=C\c2cccs2)C(C(=O)OC)=C1C	0%	0%	-19%	0	-3	6.5	2.7%
CN(C)S(=O)(=O)c1ccc(C(=O)OCC(=O)Nc2ccc3c(c2)OCO3)cc1	x	-1%	2%	10	-3	x	0.2%

Further structures follow:
SMILES	Sfp PPTase inh	gsp ag	gsp antagonist	CtBP-E1A blk	TRPV1 PAM	Menin MLL FP FL	ClpP mod
CCOC(=O)CSc1nc2ccccc2c(=O)n1CCN1CCOCC1	15%	19%	-8%	-3	0	5.3	0.1%
COc1ccccc1CNC(=O)c1ccc(CS(=O)(=O)c2ccccc2C)o1	-3%	-1%	2%	x	-7	-2.5	-0.2%&-0.2%
CN(Cc1ccc(Br)cc1)C(=O)CCN1C(=O)c2cccc([N+](=O)[O-])c2C1=O	-9%	-16%[15.4 µM]	-2%	-3	10	0.9	-1.1%
O=C(O)CONC(=O)c1cc(OCC(F)(F)F)ccc1OCC(F)(F)F	19%	u	10%	2	-17	4.1	-2.0%
Cc1cccc(C)c1Nc1nnc(SCC(=O)NC(=O)c2cccn2C)s1	-1%	-8%	-13%	-9	-4	9.1	-3.4%
CC(C)N(CCn1cnc2c([nH]c3ccccc32)c1=O)C(C)C	2%	-9%	24%	-2	-11	4.0	-11%
N#Cc1ccc(Oc2ccc(-c3cnc4ccccc4n3)cc2)cc1C#N	6%	12%[15.4 µM]	6%	3	-1	-2.3	20µM*
CCOC(=O)C1CCCN(c2c(NCCc3ccc(S(N)(=O)=O)cc3)c(=O)c2=O)C1 (centres undefined)	6%	u	4%	1	4	0.5	-0.1%
CCSc1nc(C)c(CCOc2cccc(C)c2)c(=O)[nH]1	10%	11%[15.4 µM]	8%	2	-12	0.0	x
Clc1ccc(CNCC2CCCO2)cc1 (centres undefined)	20%	8%[15.4 µM]	16%	4	-4	-1.7	0.0%
COC(=O)C1=C(C)N(Cc2ccccc2)C(=NCc2cc(OC)c(OC)c(OC)c2)N[C@H]1c1ccccc1	8%&8%	x	5%	0	4&-5	1.5&5.0	1.4%
O=C(CN1C(=O)NC2(CCOc3ccccc32)C1=O)Nc1cccc([N+](=O)[O-])c1 (centres undefined)	x	14%	-4%	x	x	x	2.1%
Cc1noc(C)c1C(=O)N(C)C[C@@H]1OCc2ccccc2-c2c(n(C)c3ccccc23)C(=O)N([C@H](C)CO)C[C@H]1C	x	-1%	x	-8	x	x	-9.1%
NC(=O)c1ccsc1NC(=O)CCc1ccccc1	-14%	0%	-3%	6	-1	1.8	-1.4%
O=C(Nc1ccc(NC(=O)C2CC2)cc1)c1cccs1	-9%	-3%	11%	-25	3	-0.7	1.8%
O=C(NNC(=O)c1cnccn1)c1ccc(Cl)c(Cl)c1	13%	21%	-3%	-6	6	x	0.6%
CCN(CC)c1ccc(NC(=O)CSc2nc(C)cc(=O)[nH]2)cc1	-14%	2%	-18%	-3	1	-1.9	-2.5%
Cc1cccc(-c2noc(Cc3ccc(Cl)cc3)n2)c1	-13%	16%	0%	66	11	5.2	0.9%
CSc1nc(NCc2ccco2)c2sc3nc(C(C)C)c4c(c3c2n1)CC(C)(C)OC4	u	0%	26%	0	-5	5.9	-4.5%
Cc1ccnc(NC(=O)C2CCCN(c3ncnc4c3nc3n4CCCCC3)C2)c1 (centres undefined)	13%	11%	-7%	-21	-8	4.2	x
CCOC(=O)c1c(NC(=O)CSc2nnc(CN3CCOCC3)n2C)sc2c1CCCC2	u	25%	-10%	-7	9	-0.6	0.6%
c1cc(CNC23CC4CC(CC(C4)C2)C3)ccn1	16%	22%[15.4 µM]	-7%	7	-1	0.1	x
O=C(COc1ccccc1)NC(=S)Nc1ccc(Br)cn1	9%	-2%	1%	-13	1	-0.1	-0.7%
CC(C)(CSc1nncn1/N=C/c1ccco1)NS(=O)(=O)c1ccc(Cl)cc1	5%	u	u	-2	2	6.5	-1.4%
COc1ncccc1C(=O)NC1CCCc2c1cnn2-c1ccc(C)c(C)c1 (centres undefined)	0%	4%	-9%	x	-11	x	1.5%

An excerpt from above in order of the gsp ag value, smallest number first.
structure,gsp ag
CCN(CC)c1ccc(NC(=O)CSc2nc(C)cc(=O)[nH]2)cc1,2%
COc1ncccc1C(=O)NC1CCCc2c1cnn2-c1ccc(C)c(C)c1 (centres undefined),4%
Cc1ccnc(NC(=O)C2CCCN(c3ncnc4c3nc3n4CCCCC3)C2)c1 (centres undefined),11%

Next results
SMILES	Sfp PPTase inh	gsp ag	gsp antagonist	CtBP-E1A blk	TRPV1 PAM	Menin MLL FP FL	ClpP mod
CCOC(=O)N1CCN(CC(=O)Nc2cc(C)nn2-c2nc3ccccc3s2)CC1	u	-34%[inhibitor]	12%	4	-17	-1.8	-2.4%
COCCSc1ccccc1C(=O)Nc1ccc(Cl)cn1	5%	20%	11%	-6	-17	2.1	-1.7%
COc1ccc(NC(=O)Cc2coc3cc(C)ccc23)cc1S(=O)(=O)N1CCOCC1	19%	-6%	-7%	4	1	0.3	-1.6%
Nc1ccc2c(c1)C(=O)N(CCCCCC(=O)O)C2	27%	13%	8%	2	7	-0.6	16µM*
C/C(Cl)=C/Cn1c(SCc2ccc(Cl)cc2)nc2c1c(=O)[nH]c(=O)n2C	18%	21%	-8%[15.4 µM]	1	0	-0.5	-2.4%
COc1ccc(NC(=O)N(C)C[C@H]2OCc3cnnn3CCCC(=O)N([C@H](C)CO)C[C@@H]2C)cc1	x	-9%	x	0	x	x	-4.7%
Cc1ccc(Oc2ncccc2NC(=O)CC(CC(=O)O)c2ccccc2)c2c1CCC2 (centres undefined)	12%	-30%[inhibitor]	-7%	4	7	-3.0	x
O=C(COC(=O)c1cn(-c2ccccc2)nc1-c1ccccc1)c1ccc([N+](=O)[O-])cc1	3%	x	x	x	12	7.0	x
COc1cccc(CCNC(=O)C2CCC(=O)N(Cc3cccc(OC)c3)C2)c1 (centres undefined)	9%	20%	5%	-1	0	-1.8	-0.4%
Cc1cc2oc(=O)cc(CN3CCN(S(=O)(=O)c4ccc5c(c4)OCCO5)CC3)c2cc1C	-5%	-13%	-9%	-16	-1	0.7	-9.8%
CCn1c(C)nc2cc(C(=O)n3cc(C(=O)c4ccccc4O)cn3)ccc21	29%	x	x	x	1	4.1	x
CS(=O)(=O)N1CCN(c2ccccc2NC(=S)NC(=O)c2cccs2)CC1	18%	3%[15.4 µM]	-41%	x	0	-5.2	x
Cc1cc(=O)oc2cc(NC(=O)CCCC(=O)O)ccc12	8%	8%	-1%	6	-6	0.9	5.7%
CN(C)C(=O)c1cc([N+](=O)[O-])ccc1O	5%	-2%	7%	0	-1	20	1.5%
O=C(Nc1c2c(nn1-c1ccc(F)cc1)CS(=O)C2)c1ccc(Br)o1 (centres undefined)	12%	-9%	5%	3	3	x	-1.0%
